2A firefly: lowers the firefly signal of an FMDV 2A StopGo reporter. HEK cells with a luciferase reporter of 2A StopGo recoding. Potency, µM (series often up to 57.5 µM), inactives show top-dose signal change, negative = less light. 0.23% of 120,000 active; active = well fitted falling curve with a large enough effect; inconclusive = small, poorly fitted or top-dose-only effect; inactive = no such curve, though single readings can be large or run the other way; note: nearly all actives have a fitted effect of over 60% in size; overnight with compound
StopGo RLuc: FMDV 2A StopGo reporter, Renilla signal | HEK cells with a luciferase reporter of 2A StopGo recoding | 0.32% of 120,000 active | Potency, µM (titrated, usually from 57.5 µM), for the others: top-dose signal change, negative = less light | AID 1745857; active means well fitted falling curve with a large enough effect; inconclusive means small, poorly fitted or top-dose-only effect; inactive means no such curve, though single readings can be large or run the other way; note: nearly all actives have a fitted effect of over 55% in size; overnight with compound
* = called active by the depositor; ? = inconclusive; [ ] = remark or other dose. % is set by controls: 0 for no effect and ±100 for the full control effect; potency is the fitted concentration of half-maximal effect. Not all compounds are listed. The share of hits here may be higher or lower than overall.

#	Molecule	2A firefly	StopGo RLuc
1	COCCNC(=O)Cn1c(=O)n(CCCCCC(=O)NCc2ccc3c(c2)OCO3)c(=O)c2sccc21	4%	-7%
2	Cc1cccc(CNC(=O)c2cnc3sc(N4CCOCC4)nn3c2=O)c1	2%	-2%
3	Fc1ccccc1-c1nc(NC2CCCCC2)c2ccccc2n1	-6%	3%
4	Cc1[nH]c2ccccc2c1/C=C/C(=O)c1ccc(Br)cc1	0%	19%
5	Cc1c(C(=O)Nc2ccc(F)c(C(F)(F)F)c2)sc2nc(-c3ccccc3)cn12	34%[activator]	17%
6	C(#CCN1CCN(CC#CCOC(c2ccccc2)c2ccccc2)CC1)COC(c1ccccc1)c1ccccc1	-7%	-4%
7	CN(C)c1cccc(C(=O)NC(c2ccccc2)c2ccccc2)c1	2%	23%
8	COc1cc2c(=O)n(Cc3ccccc3)c(=O)n(CC(=O)Nc3cc(C(F)(F)F)ccc3Cl)c2cc1OC	-14%	-3%
9	C[C@]12CCC(=O)C=C1C=C[C@@H]1[C@@H]2CC[C@@]2(C)[C@H]1CC[C@@]21CCC(=O)O1	?	?
10	Cc1ccc(/C=C(/C#N)C(=O)c2ccccc2)o1	30%	28%
11	COCC(C)n1c(C)cc(C(=O)COC(=O)c2nn(C)c(=O)c3ccccc23)c1C (stereo not given)	12%	6%
12	CCCCOCCCNC(=O)Cn1cnc2c1c(=O)n(C)c(=O)n2C	-7%	-5%
13	Nc1cc(=O)[nH]c(SCc2ccccc2F)n1	29%	4%
14	Nc1c(C(=O)Nc2ccc(OC(F)(F)F)cc2)nnn1Cc1ccccc1	13%	5%
15	Cc1nc2nc(SCC(=O)Nc3cccc(Cl)c3C)[nH]c2cc1Br	-12%	-18%

#	Molecule	2A firefly	StopGo RLuc
16	CCN1CCN(c2ccc(NC(=O)c3cc(OC)cc(OC)c3)cc2Cl)CC1	66%[activator]	-11%
17	COc1cccc(CNC(=O)N2CCN(Cc3ccc(Cl)s3)CC2)c1	-8%	-12%
18	Cc1ccc(NC(=O)C2(N(C)C(=O)Cc3nc(N)n[nH]3)CCCCC2)cc1	8%	-2%
19	CCOc1ccccc1NC(=O)CSc1nccn1-c1cccc(C)c1	?	?
20	CC(=O)Nc1oc2ccccc2c(=O)c1-c1ccccc1	19%	0%
21	Cc1ccc(C(=O)Nc2ccc(-n3c(C)nc4ccccc4c3=O)cc2)cc1[N+](=O)[O-]	-2%	-17%
22	CCc1nn2c(=O)cc(CN3CCCCC3C)nc2s1 (stereo not given)	3%	-5%
23	O=C(/C(=C/c1cccc(O)c1)c1nc2ccccc2s1)c1ccccc1	0%	?
24	O=C(CSc1ncnc2nc[nH]c12)NCc1ccccc1Cl	0%	0%
25	O=C(Nc1ccc(F)c(F)c1)c1ccc(F)c(S(=O)(=O)N2CCC3(CC2)OCCO3)c1	?	?
26	Cc1ccc(Nc2ccc(S(N)(=O)=O)cc2[N+](=O)[O-])cc1	0%	-4%
27	O=C(COc1ccc2c(C(F)(F)F)cc(=O)oc2c1)NCc1cccs1	16%	1%
28	O=C(CSc1ncccn1)Nc1nc2ccccc2s1	137%[activator]	10%
29	O=C(NCCc1ccccn1)C12CC3CC(CC(C3)C1)C2	35%[activator]	5%
30	CCOc1ccccc1NC(=O)NCc1nc(-c2ccc(OC)cc2)oc1C	17%	13%

Five compounds from above, sorted by heavy-atom count, ascending.
#	Molecule	2A firefly	StopGo RLuc
22	CCc1nn2c(=O)cc(CN3CCCCC3C)nc2s1 (stereo not given)	3%	-5%
20	CC(=O)Nc1oc2ccccc2c(=O)c1-c1ccccc1	19%	0%
17	COc1cccc(CNC(=O)N2CCN(Cc3ccc(Cl)s3)CC2)c1	-8%	-12%
16	CCN1CCN(c2ccc(NC(=O)c3cc(OC)cc(OC)c3)cc2Cl)CC1	66%[activator]	-11%
21	Cc1ccc(C(=O)Nc2ccc(-n3c(C)nc4ccccc4c3=O)cc2)cc1[N+](=O)[O-]	-2%	-17%

Reprinted, compounds 20 to 22
#	Molecule	2A firefly	StopGo RLuc
20	CC(=O)Nc1oc2ccccc2c(=O)c1-c1ccccc1	19%	0%
21	Cc1ccc(C(=O)Nc2ccc(-n3c(C)nc4ccccc4c3=O)cc2)cc1[N+](=O)[O-]	-2%	-17%
22	CCc1nn2c(=O)cc(CN3CCCCC3C)nc2s1 (stereo not given)	3%	-5%

(cont.)
#	Molecule	2A firefly	StopGo RLuc
31	Cc1ccc(-c2ccccc2)nc1C	14%	5%
32	Cc1ccc(-n2ncc3c(N4CCC(Cc5ccccc5)CC4)ncnc32)cc1C	1%	-9%
33	CCOc1ccc(C(=O)Nc2cccc3ccc(C)nc23)cc1Cl	1%	-5%
34	CNC(=O)NC(=O)C(C)N1CCN(c2oc(C3CC3)nc2C#N)CC1 (stereo not given)	5%	-7%
35	CCc1cccc(NC(=O)Cn2c(=O)cc(C(=O)NC)c3ccccc32)c1	0%	1%
36	CCCN(Cc1cc2cc(C)ccc2[nH]c1=O)C(=O)c1cccc(Cl)c1	-8%	-1%
37	COC(=O)c1cc2oc3ccccc3c2n1Cc1ccc(C)cc1	23%	-9%
38	O=C1CN(C(=O)COC(=O)C23CC4CC(CC(C4)C2)C3)c2ccccc2N1	-7%	8%
39	Cc1ccc(/C(=N/O)c2oc3ccc4c(C)cc(=O)oc4c3c2-c2ccccc2)cc1	?	6%[1.06 µM]
40	CC(C)(C)OC(=O)N1CCC(c2c(C(=O)NCCc3ccsc3)cnn2-c2ccc(F)cc2F)CC1	0%	1%
41	CC(C)C(C)(C#N)NC(=O)COc1ccc2ccc(=O)oc2c1 (stereo not given)	29%	12%
42	CS(=O)(=O)N(CC(=O)N1CCc2ccccc2C1)c1cc(C(F)(F)F)ccc1Cl	10%	254%[activator]
43	Cc1ccc2c(CC(=O)Nc3ccc(S(=O)(=O)N4CCCCC4)cc3)coc2c1	1%	164%[activator]
44	CC(C)CC(NC(=O)Cc1c[nH]c2ccccc12)C(=O)N(C)C (stereo not given)	-1%	-4%
45	CCOc1cccc2[nH]c(C(=O)O)cc12	50%[activator]	-5%[1.06 µM]

Single records (already shown). Order of values: 2A firefly, StopGo RLuc
`CCOc1cccc2[nH]c(C(=O)O)cc12` is listed as 50%[activator], -5%[1.06 µM]
`Cc1ccc(/C(=N/O)c2oc3ccc4c(C)cc(=O)oc4c3c2-c2ccccc2)cc1` is listed as ?, 6%[1.06 µM]
`CCc1cccc(NC(=O)Cn2c(=O)cc(C(=O)NC)c3ccccc32)c1` is listed as 0%, 1%

Carrying on:
#	Molecule	2A firefly	StopGo RLuc
46	COCCc1nn2c(=O)cc(COC(=O)c3ccc4c(c3)OCO4)nc2s1	0%	-7%
47	COc1cc(C)cc2oc(=O)c(CC(=O)N3CCN(CCc4ccccn4)CC3)c(C)c12	16%	9%
48	CC(C)(C)C(=O)N(c1ccc(F)cc1)C1C=CS(=O)(=O)C1 (stereo not given)	-15%	-6%
49	Cc1ccc(CNc2ccc(-c3nc(-c4ccco4)no3)cc2[N+](=O)[O-])cc1	40%[activator]	-9%
50	CCOc1ccc(C2CCCN2Cc2coc(-c3cccc(F)c3)n2)cc1 (stereo not given)	0%	-1%
51	Cc1c(N(Cc2ccccc2F)S(C)(=O)=O)c(=O)n(-c2ccccc2)n1C	-7%	-10%
52	COc1ccc2cc(CNc3ccc(C)cc3)c(=O)n(CC(=O)Nc3cccc(C(F)(F)F)c3)c2c1	0%	6%
53	CN(Cc1ccc(-c2ccc(Cl)cc2)o1)C(=O)CSc1nnc(C2CC2)n1Cc1ccco1	53%[activator]	8%
54	COCCNc1nc(-c2ccc(NC(=O)C(C)C)cc2)cs1	89%[activator]	62%[activator]
55	COc1cccc(-c2nc3c(c(SCC(=O)Nc4cccc(C)c4C)n2)Cc2c(CO)cnc(C)c2O3)c1	-6%	-13%
56	CCc1cc(=O)oc2cc(OCc3nn[nH]n3)ccc12	-7%	-20%
57	CC1=NS(=O)(=O)NC(C)=C1CCC(=O)Nc1ccc2c(c1)CCC2	22%	-4%
58	CCCC(=O)Nc1nc2ccc(CCC(=O)NCc3cc(Br)ccc3OC)cc2s1	39%[activator]	106%[activator]
59	Cn1c(=O)c2c(-c3ccccc3Cl)n(Cc3ccc(Cl)cc3)cc2n(C)c1=O	-15%	-12%
60	CC(Oc1cccc(F)c1)C(=O)NCCc1ccccn1 (stereo not given)	16%	2%

#	Molecule	2A firefly	StopGo RLuc
61	Cn1c(=O)n(C)c2cc(N3CCCC3)c(NC(=O)Nc3ccccc3)cc21	8%	5%
62	CCNc1cc(C(=O)N2CCOCC2)c2ccccc2n1	26%	19%
63	CCOC(=O)c1cn[nH]c1S(=O)(=O)N1CCCC(C)C1 (stereo not given)	6%	22%
64	Cn1c(SCC(=O)Nc2nncs2)nnc1C1CC1	-5%	-16%
65	CCS(=O)(=O)Nc1cccc(C2=NN(S(=O)(=O)c3ccccc3)C(c3ccccc3C)C2)c1 (stereo not given)	-3%	109%[activator]
66	O=C(CCc1c[nH]c2ccccc12)NCCSC(F)(F)F	9%	0%
67	O[C@H](COc1cccc(Cl)c1)CN1CCC(C(O)(c2ccccc2)c2ccccc2)CC1	-5%	2%
68	CCc1ccc(NC(=O)c2cc(-c3cccs3)on2)cc1	5%	32%[activator]
69	CC(NC(=O)CN(c1ccc(Cl)cc1Cl)S(=O)(=O)c1ccccc1)c1ccccc1 (stereo not given)	-27%	68%[activator]
70	Cn1c(Oc2ccc(Cl)cc2)nc2c1c(=O)n(Cc1ccc(F)cc1)c(=O)n2C	3%	5%
71	O=S(=O)(Nc1ccc(-c2ccc(N3CCOCC3)nn2)cc1)c1ccc(C(F)(F)F)cc1	?	3%
72	Cc1ccc2c(COC(=O)CCc3ccc4c(c3)OCO4)cc(=O)oc2c1	7%	1%
73	O=C1CCCC2=C1C(c1ccsc1)CC(=O)N2c1ccccc1C(F)(F)F (stereo not given)	-2%	17%
74	COc1ccc(Br)cc1C1N2CC3(C)CN1CC(C)(C2)C3=O (stereo not given)	-9%	-15%
75	Cc1ccc(NC(=O)c2nn(Cc3ccccc3)c(=O)c3ccccc23)cc1	62%[activator]	14%

#	Molecule	2A firefly	StopGo RLuc
76	COc1cc(NC(=O)N(Cc2ccco2)C2CCN(C(C)=O)CC2)cc(OC)c1OC	-6%	13%
77	N#Cc1ccc(/C=C2\CSc3ccccc3C2=O)cc1	122%[activator]	-11%
78	C=CCN(CC(N)=O)Cc1cccs1	5%	-8%
79	Cc1ccc(-n2ncc(C(=O)NCCCN3CCN(C)CC3)c2C2CCN(C(=O)OC(C)(C)C)CC2)c(C)c1	-29%	4%
80	CCN1CCN(C(=O)Cn2ncc3c4ccccc4n(Cc4ccccc4F)c3c2=O)CC1	4%	6%
81	COC(=O)c1cc(NCc2ccc(Cl)c(Cl)c2)ccc1N1CCOCC1	-3%	-11%
82	Cc1nc(-n2nc(C)c(Cc3ccc4c(c3)OCO4)c2C)sc1C(=O)Nc1ccc(Cl)cc1	-12%	16%
83	CN(Cc1ccccc1NC(=O)Cc1ccc(C(F)(F)F)cc1)C1CCCCC1	-7%	-5%[1.06 µM]
84	CC(C)c1ccc(NC(=O)CN2C(=O)c3cccc4cccc2c34)cc1	-6%	-7%
85	CC1Cc2cc(S(=O)(=O)CCC(=O)Nc3cccc(F)c3)ccc2N1C(=O)C1CC1 (stereo not given)	-16%	2%
86	CC(CCc1ccccc1)NC(=O)CSc1n[nH]c(-c2ccccc2Cl)n1 (stereo not given)	-17%	-19%
87	COc1ccc(C2C(c3ccccc3)=C(O)C(=O)N2CCc2ccccc2)cc1OC (stereo not given)	18%	55%[activator]
88	COc1cc(OC)c(NC(=O)CC(C)S(=O)(=O)c2ccc3c(c2)NC(=O)CO3)cc1Cl (stereo not given)	-4%	6%
89	COc1ccccc1-c1coc2cc(OCc3ccccc3)ccc2c1=O	72%[activator]	6%
90	COc1cc(NC(=O)c2noc3c2CSc2ccccc2-3)cc(OC)c1OC	-19%	?

#	Molecule	2A firefly	StopGo RLuc
91	CCOc1cc(C2C(C(=O)Nc3ccc(OC)cc3)=C(C)Nc3nc(SC)nn32)ccc1O (stereo not given)	-5%	-12%
92	Cc1ccccc1COc1ccc(C(=O)O)cc1	92%[activator]	-7%
93	CC(C)OCCCNC(=S)NCCc1ccccc1	183%[activator]	56%[activator]
94	CCCN(CCC)C(=O)c1cc2cc(Br)ccc2oc1=O	11%	4%
95	CCOC(=O)c1c(C)oc2nc(C)nc(NCCc3ccc(S(N)(=O)=O)cc3)c12	-16%	13%
96	O=c1oc2cc(O)ccc2cc1-c1nc(-c2ccc(Cl)c(Cl)c2)cs1	-11%	-12%
97	CC1=C(C(=O)Nc2cccc(Cl)c2C)C2(CCCCCC2)OC1=O	-21%	-5%
98	Cc1ccc(NC(=O)C2CCCN(S(=O)(=O)c3cccs3)C2)c(C)c1 (stereo not given)	-14%	23%
99	COc1cc(OC)cc(C(=O)N2CCC(C(=O)O)CC2)c1	4%	7%
100	COc1ccc2c(CNCCc3cccs3)c(C(=O)O)n(Cc3ccccc3)c2c1	-21%	73%[activator]
101	Cc1oc(-c2cccs2)nc1CC(=O)N1CCC(NC(=O)c2ccccc2)CC1	-5%	-3%
102	O=C(CSc1nc2c(c(=O)[nH]1)CN(Cc1ccc3c(c1)OCO3)CC2)Nc1cccc(Cl)c1	-8%	8%
103	CC(=O)c1ccc(NS(=O)(=O)c2cccc(C)c2)cc1	210%[activator]	266%[activator]
104	Cn1c(SCc2cc(Cl)c3c(c2)OCCO3)nnc1-c1cccnc1	7%	-18%
105	Cc1ccccc1C(=O)Nc1ccc(Cl)cc1C(F)(F)F	57%[activator]	20%
106	COc1ccc(-c2noc(CN3CCN(c4ccccc4OC)CC3)n2)cc1OC	-9%	-3%
